# RE007 growth inh = less growth of the S. pombe RE007 Vpr strain. S. pombe RE007 Vpr strain, BacTiter-Glo ATP luminescence, 24 h; control for the full effect not named in the record. Potency, µM (doses to about 92.2 µM), without a hit: at the highest dose activity change, negative = less growth. hit rate 0.21% among 360,000. AID 651644; active = well fitted falling curve with a large enough effect; inconclusive = small, poorly fitted or top-dose-only effect; inactive = no such curve, though single readings can be large or run the other way;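 also: % is scaled to controls: 0 for no effect and ±100 for the full control effect; nearly all actives have a fitted effect of over 50% in size; the assay follows cell death caused by Vpr and the record does not say whether a fall means rescue or toxicity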
#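 Fission yeast strain RE007, carrying one chromosomally integrated HIV-1 vpr copy, was seeded at OD 0.01 in PMG+AL medium with 23 nL pinned compound. After 24 h at 30 °C and 99% humidity, viability was read by BacTiter-Glo luminescence.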
# Cruzain inh noDet = cruzain (T. cruzi) inhibition without detergent; purified cruzain, Z-FR-AMC fluorescence, no detergent; hit rate 2.3% among 200,000; Potency, µM, without a hit: max response, negative = inhibition, usual class: inhibitors; active = well fitted curve in the direction sought with a large enough effect; inconclusive = small, poorly fitted or top-dose-only effect, or another doubt; inactive = no such curve, though single readings can be large; an effect the other way counts as inactive or inconclusive;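 also: plate controls were enzyme without inhibitor for no effect and buffer without enzyme for full effect; nearly all actives have a fitted effect of over 40% in size; top concentration of the series not given in the record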
# Target sequence (P25779 123-467 limits assumed): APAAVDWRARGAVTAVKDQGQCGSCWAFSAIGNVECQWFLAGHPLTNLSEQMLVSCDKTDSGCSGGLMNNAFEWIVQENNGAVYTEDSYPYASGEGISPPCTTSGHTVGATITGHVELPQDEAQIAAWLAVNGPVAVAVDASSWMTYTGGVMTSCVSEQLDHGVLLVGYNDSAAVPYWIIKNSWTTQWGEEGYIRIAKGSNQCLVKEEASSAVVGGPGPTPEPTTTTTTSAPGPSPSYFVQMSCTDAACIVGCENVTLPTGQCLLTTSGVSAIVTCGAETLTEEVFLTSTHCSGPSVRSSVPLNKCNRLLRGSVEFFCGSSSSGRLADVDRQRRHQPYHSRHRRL
#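 Detergent-free condition (0.00005% Triton X-100) in acetate buffer pH 5.5 with DTT. 1.5 nM enzyme and compound were pre-mixed 15 min, then 2 uM Z-FR-AMC substrate added; reaction progress from fluorescence change between first and third reads (60 s).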
# MARV entry inh = inhibitors of Marburg virus binding or cell entry; Potency, µM (highest dose often 37.8 µM), inactives show at the highest dose activity change, negative = inhibition, most hits filed as inhibitors; Marburg virus pseudotyped entry inhibition, cell reporter; control for the full effect not named in the record; about a third of the inactives were read at about 46 µM; hit rate 1.8% among 300,000; AID 540276; active = well fitted inhibition curve with a large enough effect; inconclusive = small, poorly fitted or top-dose-only effect, or effect the other way; inactive = flat fitted curve, though single readings scatter; tested in HEK293 cells; about a fifth of its hits are not listed in these tables; also: % is scaled to controls: 0 for no effect and ±100 for the full control effect; luciferase read-out
# NS1 function inh = influenza NS1 inhibition. hit rate 0.4% among 270,000. Potency, µM (highest dose often 46.1 µM), for inactives: at the highest dose activity, positive = more growth. S. cerevisiae slowed by influenza A NS1, growth recovery by OD600; also: actives are rising curves; nearly all actives have a fitted effect of over 50% in size
#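 In this qHTS, NS1 from influenza A is expressed in budding yeast, where it slows growth. Cells are switched from glucose to 2% galactose medium (pH 6.0, -URA), treated with compound, and growth recovery is read at OD600.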
# StopGo reporter = lowers the luciferase signal of an FMDV 2A StopGo reporter | Potency, µM (doses to about 57.9 µM), without a hit: top-dose signal change, negative = less light | AID 1159524 | human cells with a luciferase reporter of 2A StopGo recoding; control for the full effect not named in the record | hit rate 1.2% among 410,000; active = well fitted falling curve with a large enough effect; inconclusive = small, poorly fitted or top-dose-only effect; inactive = no such curve, though single readings can be large or run the other way; tested in HEK293T cells; also: % is scaled to controls: 0 for no effect and ±100 for the full control effect; nearly all actives have a fitted effect of over 45% in size; luciferase light after 4 h
# Cruzain inh Det = inhibitors of Trypanosoma cruzi cruzain with detergent. P25779. hit rate 0.43% among 200,000. Potency, µM, for the others: max response, negative = inhibition, usual class: inhibitors. purified cruzain, Z-FR-AMC fluorescence, 0.01% Triton; active = well fitted curve in the direction sought with a large enough effect; inconclusive = small, poorly fitted or top-dose-only effect, or another doubt; inactive = no such curve, though single readings can be large; an effect the other way counts as inactive or inconclusive;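 also: plate controls were neutral wells for no effect and buffer without enzyme for full effect; nearly all actives have a fitted effect of over 40% in size; top concentration of the series not given in the record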
#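 Steps: dispense cruzain (1.5 nM final) in acetate buffer pH 5.5 with DTT and 0.01% Triton X-100; pin-transfer compounds; incubate 15 min RT; add Z-FR-AMC (2 uM final); read fluorescence every 30 s, using the 60 s intensity change.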
# LASV entry inh = blocks Lassa virus binding to or entry into cells; Lassa virus pseudotype entry inhibition, cell reporter; control for the full effect not named in the record; Potency, µM (doses to about 37.9 µM), for inactives: top-dose activity change, negative = inhibition, hits mostly inhibitors; hit rate 1.2% among 300,000; AID 540256; active means well fitted inhibition curve with a large enough effect; inconclusive means small, poorly fitted or top-dose-only effect, or effect the other way; inactive means flat fitted curve, though single readings scatter; tested in HEK293 cells; also: % is scaled to controls: 0 for no effect and ±100 for the full control effect; nearly all actives have a fitted effect of over 50% in size; luciferase read-out
# SARS PLpro yeast = inhibitors of SARS-CoV papain-like protease in yeast. S. cerevisiae expressing SARS-CoV PLpro, growth rescue; control for the full effect not named in the record. hit rate 0.19% among 330,000. Potency, µM (series often up to 32.9 µM), for the others: at the highest dose activity, positive = growth rescue; also: 0% is about no effect; nearly all actives have a fitted effect of over 55% in size; growth read by luminescence after 48 h
# Starred values were filed as active, the others as inactive; u = inconclusive; x = not tested or not shown; [ ] = another dose, or the depositor's remark. Unless noted, calls follow the shape of the dose curve; as a rule, active means well fitted rising curve with a large enough effect; inconclusive means small, poorly fitted or top-dose-only effect; inactive means no such curve, though single readings can be large or run the other way. Potency is read from the fitted curve at half-maximal effect.
SMILES,RE007 growth inh,Cruzain inh noDet,MARV entry inh,NS1 function inh,StopGo reporter,Cruzain inh Det,LASV entry inh,SARS PLpro yeast
N#CCCNS(=O)(=O)c1ccc(C(=O)OCCCOC(=O)c2ccc(S(=O)(=O)NCCC#N)cc2)cc1,-13%,x,x,1%,-8%,x,x,-2%
O=C(NCc1ccccc1)/C(=C\c1ccccc1)NC(=O)c1ccco1,11%,x,16%[46.1 µM],14%,19%,x,5%[46.1 µM],-9%
Cc1ccc(NC(=S)NCc2ccccc2)c(C)c1,-12%,x,-4%,-26%,26%,x,-18%,11%
COc1cccc(CNS(=O)(=O)c2ccc(S(=O)(=O)NC3CC3)cc2)c1,0%,x,-2%[46.1 µM],-2%,21%,x,1%,2%
Cc1ccc(Nc2nc(N)c([N+](=O)[O-])c(NCCO)n2)cc1C,13%,x,-27%,-3%,45%[activator],x,3%,-2%
Cc1ccc(NC(=O)CCn2nnc3ccccc32)c(C)c1,2%,x,u,-2%,38%[activator],x,21%,1%
O=C(CC1CCCC1)Nc1ccc(Cl)c(S(=O)(=O)N2CCOCC2)c1,5%,x,u,x,32µM*,x,2.8µM*,0%
Cc1ccc(C)c2[nH]c(=O)c(CCNS(=O)(=O)c3ccccc3)cc12,4%,4%,x,-4%,-3%,-2.1%,x,5%
CCOc1ccc(CCNC(=O)c2ccc(CS(=O)Cc3ccc(Cl)cc3)o2)cc1OCC (stereo not given),-3%,x,x,-20%,-11%,x,x,3%
N#C/C(=C\c1c(N2CCCCCC2)nc2ccccn2c1=O)C(=O)NC1CCS(=O)(=O)C1 (stereo not given),-14%,-9%,-2%,6%,-26%,-5.6%,19%,9%
CN1CCN(c2ccccc2NC(=O)c2ccc(-c3cccc(Cl)c3)o2)CC1,4%,x,13µM*,-49%,u,x,-24%,-4%
CCN(c1ccc(F)cc1)S(=O)(=O)c1cccc2nsnc12,-4%,x,1%,-5%,-19%,x,x,0%
CC1CN(C(=O)c2cc(COc3c(F)cccc3F)on2)CCN1C (stereo not given),-10%,x,29%,x,10%,x,4%,x
Cc1c(C(=O)N(C)Cc2cccc(F)c2)oc2c(Cl)cccc12,-17%,x,u,-18%,7.1µM*,x,u,-18%
CCc1ccc(NC(=O)c2cc(S(=O)(=O)NC3CCCC3)ccc2F)cc1,x,20%,x,x,28%,-0.1%,u,x
O=C(NNC1=Nc2ccccc2SC1)c1ccc(Cl)cc1,-6%,x,u,3%,28%,x,u,15%
COc1ccc(C2Nc3ccccc3C(=O)N2Cc2ccccc2)cc1CSc1ccccn1 (stereo not given),2%,u,-15%,-10%,-10%,-8.0%,-22%,-2%
COc1ccc(NS(=O)(=O)c2cccc3nsnc23)cc1Cl,-13%,x,u,0%,30%,x,2%[46.1 µM],0%
COC(=O)c1cc2sc(Cl)cc2n1Cc1nc(-c2cccc(C)c2)oc1C,x,5%,-2%,-2%,x,0.8%,x,4%
COc1cccc(CN2CCCCC2C(=O)O)c1 (stereo not given),10%,x,u,x,-5%,x,2%,2%
CCOc1ccc(NC(=O)c2cccc(NC(=O)c3ccccc3)c2)cc1,-4%,x,u,13%,34%[activator],x,6%,-1%
CCC(=O)N1CCCc2cc(S(=O)(=O)N3CCN(c4ncccn4)CC3)ccc21,-4%,23%,x,-44%,-1%,-7.9%,x,-1%
CCN(C(=O)c1cn(CC(C)C)c(=O)c2cc(OC)c(OC)cc12)c1cc(OC)ccc1OC,x,22%,-7%[46.1 µM],x,-7%,-2.5%,-11%[46.1 µM],x
CC(=O)c1c(C)[nH]c(C(=O)OCc2nnc(-c3ccc([N+](=O)[O-])cc3)o2)c1C,3%,x,u,x,u,x,-6%,0%
COC(=O)c1cc(OC)c(OC)cc1NC(=O)CSc1nnc(-c2cccnc2)n1C,12%,-2%,9%,1%,-6%,-1.0%,-3%,-10%
Cc1oc(-c2cccc(Cl)c2)nc1CSCC(=O)NCc1ccccc1Cl,x,9%,0%[46.1 µM],x,0%,-8.0%,7%[46.1 µM],x
O=C(CCCC(=O)NCC1CCCO1)NCC1CCCO1 (stereo not given),-7%,-13%,-2%,1%,7%,5.8%,-2%,-2%
Cc1ccc(NC(=O)CSC2=Nc3ccccc3C3=NC(Cc4ccccc4)C(=O)N23)cc1C (stereo not given),x,-21%,x,x,11%,-6.0%,u,x
O=C(c1cc(COc2ccc(F)c(F)c2)on1)N1CCOCC1,14%,x,x,-10%,-10%,x,x,0%
Cc1ccc(Cl)c(OCCCCN(C)Cc2ccccc2)c1,-13%,-1%,u,-28%,u,1.7%,u,5%
CCOc1cc(/C=C(/NC(C)=O)C(=O)O)cc(Cl)c1OCc1ccc(Br)cc1,-8%,x,x,7%,-14%,x,x,6%
O=C(CSc1nnc(-c2ccc(Br)cc2)n1-c1ccccc1)c1ccccc1,x,3%,x,x,1%,3.0%,1%[46.1 µM],x
C#CCNC(=O)C1=C[C@@H](C2CC2)[C@H](CCCO)[C@@H](OCC)O1,10%,x,x,8%,-15%,x,x,1%
Cc1cc(C)c(NC(=O)/C=C\C(=O)O)c([N+](=O)[O-])c1,32µM*,-4%,-1%,-5%,8%,8.6%,11%,-28%
C/C(=N\NC(=O)c1ccccc1Cl)c1ccccn1,u,x,x,-36%,30%,x,x,9%
CCOC(=O)c1cc(CC)sc1NC(=O)c1ccc([N+](=O)[O-])c(N2CCOCC2)c1,7%,-4%,10%,u,-24%,-5.3%,11%,3%
COc1ccc(/C=N/NC(=O)c2nn(-c3ccc(C)c(C)c3)c(=O)c3ccccc23)cc1,-11%,-11%,u,25%,-10%,-6.4%,u,3%
O=C(C1CCCN(Cc2cc(Br)ccc2O)C1)N1CCCCC1 (stereo not given),-5%,x,1%,0%,-19%,x,0%,-3%
Cc1nn(-c2ccccc2)c(C)c1/C=C/C(=O)OC(C)C(N)=O (stereo not given),4%,-14%,2%,-4%,19%,-2.6%,13%,8%
O=C(Cc1ccc(F)cc1)Nc1c(C(=O)N2CCN(c3ncccn3)CC2)oc2ccccc12,16%,x,u,-16%,41%[activator],x,u,-27%
CC1CC1C(=O)OCC(=O)NC(=O)c1ccc(C(C)(C)C)cc1 (stereo not given),3%,x,16%[46.1 µM],x,13%,x,4%[46.1 µM],-8%
O=C(Nc1ccc(N2CCN(C(=O)c3ccco3)CC2)cc1)c1ccco1,7%,x,u,-2%,24%,x,15%,-2%
O=C(CNC(=O)c1ccc(Br)o1)Nc1ccccc1,15%,x,x,4%,-7%,x,x,-3%
Nc1cc(-c2cccc(Br)c2)nn1Cc1ccccc1,-10%,9%,u,u,-9%,-8.3%,u,-29%
CCCC(=O)c1cn(CC(=O)OC)c2ccccc12,-10%,26%,-1%,-10%,-15%,3.2%,13%,u
CC1CCCCN1S(=O)(=O)c1ccc(N(C(=O)c2cnccn2)C(C(=O)NC2CCCCC2)c2cccs2)cc1 (stereo not given),6%,u,u,-3%,-14%,-1.4%,u,2%
O=S(=O)(F)c1ccc2nc(-c3cccc(Sc4ccccc4)c3)cc(Cl)c2c1,-9%,x,10%[46.1 µM],1%,-15%,x,10%[46.1 µM],0%
O=C(Nc1nc(-c2cc(F)ccc2F)cs1)C1=COCCO1,-29%,x,u,x,23%,x,4%[46.1 µM],0%
COc1cc(NC(=O)Cn2c(=O)n(Cc3ccccc3OC)c(=O)c3cccnc32)cc(OC)c1,x,5%,u,x,u,-0.7%,x,x
CC(=O)COC(=O)C1CCN(S(=O)(=O)c2cc([N+](=O)[O-])ccc2Cl)CC1,-3%,x,x,2%,-10%,x,x,0%

# (list continues)
SMILES,RE007 growth inh,Cruzain inh noDet,MARV entry inh,NS1 function inh,StopGo reporter,Cruzain inh Det,LASV entry inh,SARS PLpro yeast
CC(=O)NCCc1ccc(S(=O)(=O)N2CCN(c3nc(-c4ccccc4)c(C)s3)CC2)cc1,1%,x,14%[46.1 µM],7%,-12%,x,10%[46.1 µM],-1%
Cc1csc(NC(=O)CSc2nc3ccccc3s2)n1,-22%,-14%,-27%[46.1 µM],-58%,-14%,-11%,u,2%
COc1cc(NC(=O)c2ccnn2C)c(OC)cc1Cl,-6%,x,x,-10%,-9%,x,x,-1%
CCN(c1ccccc1)S(=O)(=O)c1ccc(OC)c(NC(=O)C2=NN(c3ccccc3)C(=O)CC2)c1,0%,x,u,x,-4%,x,0.32µM*,-4%
CCNC(=O)CN(CCc1ccccc1)S(C)(=O)=O,-4%,5%,3%,2%[9.22 µM],-2%,6.6%,u,5%
CCC(=O)Nc1cccc(NC(=O)CSc2nnnn2Cc2ccccc2)c1,4%,-7%,8%,u,-1%,2.5%,10%,17%
CCOC(=O)C1C(=O)C=C(c2ccc([N+](=O)[O-])cc2)CC1c1ccccc1 (stereo not given),12%,u,u,6%,u,-6.0%,u,-9%
CCCc1cc(=O)[nH]c(Nc2ccccc2O)n1,x,-1%,-7%[46.1 µM],x,6%,-2.0%,u,x
CCCCOC(=O)c1ccc(NC(=O)c2ccccc2OC)cc1,2%,-4%,u,-13%,u,-12%,u,-28%
O=C(COc1ncnc2ccccc12)NCc1ccc2c(c1)OCO2,20%,-2%,5%,3%,21%,3.0%,-1%,12%
COc1ccc(CCN2C(=O)N(c3ccc(OC)cc3)C(=O)C2CC(=O)Nc2ccccc2)cc1 (stereo not given),10%,x,u,x,-2%,x,u,0%
Cc1ccc(C)c(C(=O)COC(=O)CCN2C(=O)C3C4CCC(C4)C3C2=O)c1 (stereo not given),u,x,8%,-50%,-8%,x,0%,-8%
O=C(COc1ccc(CO)cc1Cl)Nc1ccc(F)cc1,-16%,-8%,6.5µM*,-42%,-41%,0.8%,u,3%
COc1cc(C(C)=O)ccc1OC(=O)N(C)c1ccccc1,4%,x,x,0%,5%,x,x,4%
